Compound activity (PubChem BioAssay)
Calb biofilm kill: mixture kills Candida albicans biofilm cells; actives 0.02% (n = 120,000); inhibition, % at 7.6 µM; C. albicans biofilm persisters + clotrimazole, fluorescence viability; primary screen in compound mixtures of four per well; AID 1242;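 active = inhibition above 30.3% in the primary screen of four-compound pools, then above 30% when the compound was retested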;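 also: compounds exposed to preformed 24 h biofilms for 48 h; the number belongs to the whole pool; some results filed as inactive read as strong as hits; inactives centre near 12; 0% = biofilm with clotrimazole alone and 100% = kill control; retested singly at about 60 µM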
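Test system: C. albicans biofilms. Buffer or medium: RPMI/MOPS medium, pH 7.0. Timing: 48 h compound exposure at 37 °C. Technique: Alamar Blue fluorescence. Evaluation: percent inhibition of biofilm viability.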
The depositor's hits bear a star.

SMILES | Calb biofilm kill
O=c1cc(NS(=O)(=O)c2ccccc2)nc(SCc2c(Cl)cccc2Cl)[nH]1 | 12.4
Cc1c(C(=O)NNc2cc(=O)n(C)c(=O)n2C)cccc1[N+](=O)[O-] | 15.7
Cc1nonc1C1CCCN1Cc1nc(-c2ccccc2Cl)oc1C (stereo unspecified) | 6.9
CCNC(=S)NN=C1c2ccccc2-c2ccccc21 | 7.5
O=C(/C=C/c1ccccc1[N+](=O)[O-])NCc1ccc(Cl)cc1 | 13.8
CCOCC(=O)N1CCN(c2ccc([N+](=O)[O-])cc2)CC1 | 13.8
Cn1nc(C(F)(F)F)c(C(=O)Nc2ccc(F)cc2F)c1Cl | 5.0
COC(=O)Cc1ccc(NC(=S)Nc2ccc(N3CCOCC3)cc2)cc1 | 8.0
O=C(NC1CCCC1)c1ccc([N+](=O)[O-])s1 | 12.9
Cc1cc(Cl)c2ccc3ccccc3c2n1 | 27.7
S=c1nc(C2COc3ccccc3O2)[nH][nH]1 (stereo unspecified) | 11.3
C=CCn1c(N2CCN(c3ccc(OC)cc3)CC2)nc2c1c(=O)n(C)c(=O)n2C | -1.0
CCCCn1cnc2c(oc3nc4c(cc32)CCCC4)c1=O | 7.2
COc1ccc(C(=O)C(C)Oc2cccc(NC(=O)c3cccc([N+](=O)[O-])c3)c2)cc1 (stereo unspecified) | 19.0
c1ccc(CN(Cc2ccccc2)c2ncnc3c2nnn3Cc2ccccc2)cc1 | 20.3
O=C(COC(=O)c1ccccc1F)Nc1cccnc1Cl | 8.5
O=C(NCc1ccccc1)N1CCN(c2ccc(F)cc2)CC1 | 6.1
Cc1ccc(S(=O)(=O)CCc2nnc(NC(=O)CCl)s2)cc1C | 26.0
O=S(=O)(c1ccccc1)c1nc(NCc2ccccc2)sc1Cl | 14.6
CCSc1nc(=S)cc(C)[nH]1 | 22.3
COc1ccc(CCNC(=O)c2cccnc2SC)cc1 | 4.6
O=C(CNC1CCN(Cc2ccccc2)CC1)Nc1ccc(S(=O)(=O)N2CCCCC2)cc1 | 6.9
Cc1ccc(S(=O)(=O)n2[nH]c(=O)c(CCO)c2C)cc1 | 10.2
O=C(NC(=S)Nc1nc2c(s1)CCCC2)c1ccc(C(=O)c2ccccc2)cc1 | 11.7
Cc1cc(C)n(-c2ccc(Cl)c(C(=O)Nc3cc(C(F)(F)F)ccc3Cl)n2)n1 | 16.5

Reformatted as comma-separated lines: part of the list above.
SMILES,Calb biofilm kill
CCNC(=S)NN=C1c2ccccc2-c2ccccc21,7.5
O=C(/C=C/c1ccccc1[N+](=O)[O-])NCc1ccc(Cl)cc1,13.8
CCOCC(=O)N1CCN(c2ccc([N+](=O)[O-])cc2)CC1,13.8
Cn1nc(C(F)(F)F)c(C(=O)Nc2ccc(F)cc2F)c1Cl,5.0
COC(=O)Cc1ccc(NC(=S)Nc2ccc(N3CCOCC3)cc2)cc1,8.0
O=C(NC1CCCC1)c1ccc([N+](=O)[O-])s1,12.9

(more compounds)
SMILES | Calb biofilm kill
COc1ccc(CCN=Cc2ccccc2O)cc1OC | 22.8
O=C(COc1ccccc1)N1CCN(S(=O)(=O)c2cccc([N+](=O)[O-])c2)CC1 | 8.6
O=C(NCc1ccco1)C(=O)c1c[nH]c2ccccc12 | -2.6
O=C(COC(=O)[C@@H]1CC(O)CN1S(=O)(=O)c1ccc2c(c1)OCCO2)NCc1ccc(F)cc1 (stereo partly specified) | 19.6
O=C(NC1CCCC1)C(c1ccccn1)N(C(=O)c1csnn1)C1CCCC1 (stereo unspecified) | 16.1
Nc1c(C(=O)NCc2ccco2)nnn1CC(=O)Nc1ccc2c(c1)OCO2 | 10.7
O=C(NC1CCCC1)c1cc(S(=O)(=O)N2CCOCC2)c(Cl)cc1Cl | 14.4
Cc1ccc(S(=O)(=O)N(C)c2c(C)ccc(S(=O)(=O)NC(C)(C)C)c2C)cc1 | 8.6
COc1cccc(OC)c1C(=O)OCC(=O)NC(=O)NCc1ccccc1 | 9.2
COc1ccc(-c2coc3c(CN4CCOCC4)c(O)ccc3c2=O)cc1 | 20.9
Cc1[nH]c2ccccc2c1C(=O)CSc1cccc[n+]1[O-] | 18.1
Clc1cccc(CNCCNCc2cccc(Cl)c2)c1 | 0.3
CCN(CC)Cc1oc(CO)cc(=O)c1O | 16.2
O=C(Nn1c(-c2ccc(Br)cc2)nc2ccccc2c1=O)c1cccnc1 | 15.2
Cc1ccc(CNC(=O)/C=C/c2ccc(S(=O)(=O)NCc3ccco3)cc2)cc1 | 14.0
Cc1ccc(S(=O)(=O)NC(C(=O)N2CCOCCOCCOCCOCC2)c2ccccc2)cc1 (stereo unspecified) | 25.2
COc1ccc2[nH]c(=O)c(CN(Cc3cccnc3)C(=S)NCC3CCCO3)cc2c1 (stereo unspecified) | 7.0
C/C(=N\NC(=O)c1ccoc1C)c1cccnc1 | 14.6
CCN(CC)C(=S)NC(=O)Cc1ccccc1 | -8.3
Cc1ccc(S(=O)(=O)n2nc(-c3ccco3)nc2N)cc1 | 4.6
COc1ccc([N+](=O)[O-])cc1NC(=O)Nc1ccc(OC)c(OC)c1 | 15.7
Nc1nc(-c2sc3nc4c(cc3c2N)CCCC4)nc(N2CCOCC2)n1 | 4.0
COc1ccc(C(=O)/C=C/C(=O)N(Cc2ccccc2)C(C(=O)NC2CCCCC2)c2ccncc2)c(O)c1 (stereo unspecified) | 5.8
Cc1nc2ccccn2c1-c1ccnn1S(=O)(=O)c1ccc(F)cc1 | 14.1
COc1ccc(C(=O)OCCOc2ccccc2C(C)=O)c(O)c1 | 15.3
SMILES | Calb biofilm kill
O=C(O)c1ccc(COc2ccccc2[N+](=O)[O-])o1 | 7.3
CCOC(=O)C1(CCCc2ccccc2)CCN(C(=O)C(C)n2cncn2)CC1 (stereo unspecified) | 8.6
CC(=O)c1ccc(NC(=O)C2CC(=O)N(C(C)C)C2)cc1 (stereo unspecified) | 14.6
CC(C)OP(=O)(OC(C)C)C(Nc1ccccn1)c1ccc(F)cc1 (stereo unspecified) | 24.3
Cc1ccc(Cl)c(NC(=O)CN(C)CC(=O)Nc2ccc(F)c(F)c2F)c1Cl | 17.9
CCNC(=O)C(Cc1ccccc1)NC(=O)OCc1ccccc1 (stereo unspecified) | 12.6
Cn1cc(C(N)=O)c2ccccc21 | 23.0
CCN(C(=O)C(C)OC(=O)C1C(C(=O)OC)=C(C)NC(C)=C1C(=O)OC)c1ccccc1 (stereo unspecified) | -3.8
CC(=O)N1CCN(c2ccnc3cc(Cl)ccc23)CC1 | 25.6
CN(CCc1cn[nH]c1)Cc1nc(C(c2ccccc2)c2ccccc2)no1 | 7.5
CCN(CC)S(=O)(=O)c1cc(Cl)ccc1OC | 23.6
COc1ccc(NCC(=O)N/N=C(\C)c2cc3ccccc3o2)cc1 | 14.8
Brc1ccc(-n2c(SCc3nc4ccccc4[nH]3)nnc2-c2ccncc2)cc1 | 1.7
O=C(c1cn(-c2ccccc2)nc1-c1ccc(Br)cc1)N1CCOCC1 | 11.5
COc1ccc(C(=O)O)cc1S(=O)(=O)N(C)C | 11.7
O=C(CCCNC(=O)/C(=C/c1ccccc1F)NC(=O)c1ccccc1)OCc1ccccc1 | 13.1
CCOC(=O)C(Oc1ccc2c(-c3ccccc3)cc(=O)oc2c1)c1ccccc1 (stereo unspecified) | 6.1
COc1ccc(/C=N/NC(=O)CCc2n[nH]c(=O)[nH]c2=O)cc1OC | 1.2
CC(C)=CC(O)C/C(C)=C/COc1ccc2ccc(=O)oc2c1 (stereo unspecified) | 22.3
COc1ccc2nc(SCC(=O)Nc3cc(OC)c(OC)cc3C(=O)O)c(C)cc2c1 | 11.1
CCCc1nnc(NC(=O)C(=O)NCCN(CC)CC)s1 | 18.5
COc1cc(Cn2c(-c3ccc(O)c(OC)c3)nc3ccccc32)ccc1O | 11.8
CCN(CC)S(=O)(=O)c1ccc(OC)c(NC(=O)c2cccc(C)c2[N+](=O)[O-])c1 | 8.8
Fc1ccc(-n2c(-c3ccc4ccccc4n3)n[nH]c2=S)cc1Cl | 4.8
CC(C)Oc1ccc(C(=O)NC2=NCCS2)cc1 | 0.5
SMILES | Calb biofilm kill
Cc1nn(CC(=O)Nc2ccc(C(C)C)cc2)c(C)c1[N+](=O)[O-] | 16.9
Cc1cc(C(=O)N/N=C/c2ccc(OCc3ccccc3)cc2)c(C)o1 | 17.8
C=CCSc1ncc(CO)n1Cc1ccccc1 | 11.8
C/C(=N/OC(=O)c1c(-c2c(F)cccc2Cl)noc1C)c1cnccn1 | 10.3
CN(c1ccccc1C(=O)N1CCN(Cc2ccc3c(c2)OCO3)CC1)S(C)(=O)=O | 21.1
O=C(CNC(=O)c1ccc(S(=O)(=O)N2CCCC2)cc1)N/N=C/c1ccc(F)cc1 | 9.3
O=C(NCc1nc2ccccc2[nH]1)c1ccccc1F | 30.3
Cc1ncc(CN2CCC(CO)(Cc3ccccc3)CC2)s1 | 5.5
CCN1CCN(CCCNC(=O)C(=O)c2c(C)[nH]c3ccccc23)CC1 | 15.5
O=C(Nc1ccc(O)cc1)/C(=C\C=C\c1ccccc1)NC(=O)c1ccccc1 | 18.4
CCc1nnc(NC(=O)C(CC)CC)s1 | 8.8
O=C(NNc1c(Cl)cccc1Cl)C1CCC1 | 21.9
Cn1cc(CN2CCCC(CO)(Cc3ccccc3)C2)cn1 (stereo unspecified) | -2.2
O=C(NNC(=S)Nc1cccc(Cl)c1)c1ccccc1OC(F)F | 12.0
COc1ccc(/C(N)=N/OC(=O)c2cccs2)cc1OC | 18.6
Nn1c(=O)[nH]c2c([nH]c3ccccc32)c1=O | 8.8
O=S(=O)(/N=C(/Nc1ccc(F)c(F)c1F)c1ccccc1)c1ccccc1 | 2.7
CC(=O)Nc1cccc(NC(=O)CSc2ccc(-c3ccccn3)nn2)c1 | 16.2
CC(=O)N/N=c1\sc2ccccc2n1C | 20.0
COc1ccc(C(=O)N[C@H](C(=O)N2CCN(c3ccccc3F)CC2)C(C)C)cc1 | 4.5
CCOC(=O)C1CCCN1C(=O)c1ccc(OC)c(Br)c1 (stereo unspecified) | -32.2
O=c1[nH]c(CN2CCN(S(=O)(=O)/C=C/c3ccccc3)CC2)nc2cc(Cl)ccc12 | 14.3
Cc1cc(-n2c(C)cc(C(=O)COc3ccccc3[N+](=O)[O-])c2C)no1 | 5.7
CCCC[C@@H]1CNC(=S)N1CCCC | 14.2
Cc1ccc(-c2nnc(SCC(=O)NC(=O)Nc3ccc(C)cc3C)n2N)cc1 | 25.2
SMILES | Calb biofilm kill
N=c1oc2ccc3ccccc3c2cc1C(N)=S | 19.7
CC(C)c1ccc(C(=O)N2CCCN(C(=O)c3ccc(C(C)C)cc3)CC2)cc1 | 11.2
COc1cccc(NC(=O)CSc2nnc(COc3ccc4c(c3)CCCC4)o2)c1 | -9.4
CS(=O)(=O)c1ccc(Cl)c(NC(=O)Nc2ccccc2)c1 | 13.6
CC(=O)c1cc(C(=O)c2ccccc2)sc1Nc1ccccc1 | 16.4
CCOC(=O)c1cnc(Nc2ccccc2)nc1C(F)(F)F | 18.0
O=C(c1ccco1)N1N=C(C2CCCCC2)CC1(O)C(F)(F)F (stereo unspecified) | 13.5
Cc1ncoc1C(=O)N1CCCC(C(=O)c2ccc3c4c(cccc24)CC3)C1 (stereo unspecified) | 9.3
OC(CN=c1sc2ccccc2n1CC(O)COc1ccccc1)COc1ccccc1 (stereo unspecified) | 16.3
Cc1ccc(C)c2[nH]c(=O)c(CN(Cc3ccco3)C(=S)NCC3CCCO3)cc12 (stereo unspecified) | 10.2
O=C(/C=C\Nc1ccc2c(c1)OCO2)c1cccs1 | 6.4
CCN(c1ccc(NC(=O)COC(=O)c2cc3ccccc3oc2=O)cc1)C(C)C | 8.4
CCOC(=O)NNC(=O)C1CCC(C)CC1 (stereo unspecified) | 13.1
Cc1noc(C)c1C(=O)OCC(=O)Nc1c(F)cccc1F | 13.1
CC1CN(C(=O)C(C)Sc2nnnn2C)CC(C)O1 (stereo unspecified) | 4.8
Cc1ccccc1N1CC(O)(c2ccccc2)[N+]2=C1SCC2 (stereo unspecified) | 14.2
CCc1[nH]nc2c1C(c1ccsc1)C(C#N)=C(N)O2 (stereo unspecified) | 9.9
Cc1nc(C(=O)Nc2ccccc2)sc1C(=O)Nc1ccccc1 | 19.9
Cc1ccc2nc(-c3ccncc3)c(NC3CCCCC3)n2c1 | 12.3
CC1Cc2ccccc2N1CC(=O)c1c(N)n(Cc2ccccc2)c(=O)n(C)c1=O (stereo unspecified) | 12.7
O=C(NCC(c1ccco1)N1CCN(c2ccccc2F)CC1)OCc1ccccc1 (stereo unspecified) | 17.7
Cn1c(N)c(C(=O)COC(=O)CCC2CCCCC2)c(=O)n(C)c1=O | 5.5
CCCCCNC(=O)c1cccnc1SCC(=O)Nc1ccccc1OC | 8.3
Cc1c(NC(=O)Nc2c(Cl)cccc2Cl)c(=O)n(-c2ccccc2)n1C | 7.1
CCOC(=O)N/N=C/c1c(F)cccc1F | 0.1

A section from further up, as a working copy:
SMILES | Calb biofilm kill
Cn1c(N)c(C(=O)COC(=O)CCC2CCCCC2)c(=O)n(C)c1=O | 5.5
CCCCCNC(=O)c1cccnc1SCC(=O)Nc1ccccc1OC | 8.3
Cc1c(NC(=O)Nc2c(Cl)cccc2Cl)c(=O)n(-c2ccccc2)n1C | 7.1
CCOC(=O)N/N=C/c1c(F)cccc1F | 0.1

More structures.
SMILES | Calb biofilm kill
CC(C)CNC(=O)COC(=O)c1cc(S(=O)(=O)N(C)C)ccc1N1CCCC1 | 8.1
Cc1cc(NC(=O)NN2CCOCC2)nn1-c1c(Cl)cc(Cl)cc1Cl | 16.4
C=CCNc1cc(N2CCCC2)ccc1[N+](=O)[O-] | 37.0
CCOc1cc(/C=N/NC(=O)C(=O)Nc2cc(Cl)ccc2C)ccc1O | 7.7
O=C(Cn1nnc(-c2ccccc2)n1)N/N=C/c1ccco1 | 16.9
CC1(OC(=O)C2CCCC2)C(=O)C=C2C=C(c3ccsc3)N(C(CO)CO)C=C2C1=O (stereo unspecified) | 20.7
O=C(N/N=C/c1cc2c(cc1Cl)OCO2)c1ccncc1 | 24.1

The list is partial (hit frequency here may not be typical).
